# Screening data deposited in PubChem BioAssay by several laboratories.
# PrP UTR inh – suppresses PrP 5' UTR mRNA reporter expression. cell-based PrP 5' UTR mRNA reporter, plate reader. inhibition, % (no concentration beside the values). 340,000 tested, 0.35% active;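 active = every replicate at 50% or more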;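 also: 0 = median of the neutral control wells; tested in H4 reporter cells; numbers are from one replicate; inactives centre near -14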
# Sa RN4220 lethal – S. aureus RN4220 growth inhibition; OD600, 16 h; inhibition, % (no concentration beside the values); 330,000 tested, 0.33% active;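 active = z-score of -3 or lower and OD600 up to 0.18 on both plates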;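 also: plate controls were untreated cells for no effect and reference antibiotic for full effect; stock transfer was 100 nL into about 80 µL; one replicate is shown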
# BJeLR lethal – kills HRASV12-expressing BJeLR cells. BJeLR (HRASV12) viability, CellTiter-Glo ATP luminescence, 48 h; reference of the scale not given here. inhibition, % (concentration not given with the values). 300,000 tested, 0.17% active;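 active = replicate mean above 50%; inconclusive = above 50% but judged a plate artefact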;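 also: 50 nL library stock added to about 25 µL; numbers are from one replicate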
# Sa ugtP lethal – growth inhibition of S. aureus ugtP deletion strain. S. aureus RN4220 ugtP deletion, OD600 growth, 16 h; some inactives read as strong as hits. growth inhibition, % (no concentration beside the values). 330,000 tested, 0.54% active. AID 1259309;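 active = z-score under -3 and OD600 up to 0.15 on both plates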;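 also: plate controls were untreated wells for no effect and antibiotic for full effect; wells of about 80 µL received 100 nL stock; the first replicate is given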
# Mtb hypoxia rep – Mtb hypoxia fluorescent reporter inhibition | fluorescence inhibition, % (no concentration beside the values) | AID 1159583 | M. tuberculosis hypoxia-regulated fluorescent reporter, fluorescence | 300,000 tested, 0.1% active;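 active = 35 to 45% if threefold the growth effect, above 45% if 1.5-fold the growth effect; inactive = the rest, general growth blockers included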;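 also: wells of about 50 µL received 100 nL stock; 0% = vehicle wells and 100% = reference inhibitor wells; whole bacteria with a GFP reporter of the hypoxia response; strong numbers were not always called active; many hits fall short of the cut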
# Autofluor counter – compound fluorescence in toxin protease inhibitor counterscreen; compound autofluorescence counterscreen, microsphere flow cytometry; hits give high values; fluorescence intensity (concentration not given with the values); 360,000 tested, 3.1% active; AID 624483;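 active = at least 3 SD above the mean of all compounds, about 16000 in these data; inconclusive = too few beads counted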;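 also: 100 nL of 1 mM stock went into each well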
# Mtb hypoxia rep growth – also measured in Mtb hypoxia rep; calls as there; growth inhibition, %; measured here: M. tuberculosis growth (absorbance);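 0% = vehicle and 100% = reference antibiotic; read after six days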
# * hit, by the source's call; ? = inconclusive; nt = not tested or not shown.
No.	compound	PrP UTR inh	Sa RN4220 lethal	BJeLR lethal	Sa ugtP lethal	Mtb hypoxia rep	Mtb hypoxia rep growth	Autofluor counter
1	N#CC(c1ccccc1)c1cccc(Cl)n1 (stereo unspecified)	-21	7.6	7	14	8	-1	4007
2	Brc1ccccc1CN1CCC(N2CCCCC2)CC1	-32	2.2	12	8	7	-1	12952
3	N#Cc1c(NCCO)nc(NCc2ccccc2)c2c1CCN(Cc1ccccc1)C2	nt	-7.9	-8	-9	10	13	nt
4	CC1(C)Cn2c(nc(=O)c3c2NCN(CCc2ccccc2)C3)S1	-12	2.0	-1	1	4	5	4699
5	Cn1c(NC(=O)CC2CCCCC2)cc(=O)n(C)c1=O	-34	4.1	-11	8	4	9	5771
6	CCNc1c([N+](=O)[O-])c(=O)n(CC)c2ccccc12	nt	0.9	0	0	8	15	5503
7	Cc1cnc(NC(=O)CSc2nnc(-c3cccs3)n2C)s1	-11	6.5	10	5	5	3	16028
8	COc1cc(C(=S)N2CCN(c3ccccc3Cl)CC2)cc(O)c1O	-9	17	-2	-15	1	1	3948
9	Cc1ccc2c(c1C)OC(=O)CC2c1ccccc1 (stereo unspecified)	-31	4.7	-11	1	7	3	3323
10	Cc1cc(C)n2nc(C(=O)Nc3cccnc3)nc2n1	-21	0.8	-2	4	nt	nt	2943
11	CCCOc1ccc(C=NNC(=O)c2nnn(-c3nonc3N)c2-c2cccs2)cc1OC	nt	3.6	nt	11	8	11	nt
12	CCCCc1nnc(NC(=O)C2=COCCO2)s1	-35	-3.5	1	-7	-8	-4	5961
13	COc1ccc(-c2oc(=O)c3cc(OC)c(OC)cc3c2C(F)(F)F)cc1	-9	3.7	nt	2	4	10	4300
14	CCOc1ccc(S(=O)(=O)N/N=C(\C)c2ccc(Cl)c(Cl)c2Cl)cc1	-16	nt	-6	nt	nt	nt	2016
15	CC(C)N1CCN(Cc2cccn2-c2cccnc2)CC1CCO (stereo unspecified)	-15	1.6	-7	17	11	5	1991
16	CC(=O)Nc1ccc(S(=O)(=O)NNC(=O)c2cc3c4ccccc4n(C)c3s2)cc1	1	-5.0	2	-11	4	8	3766
17	CC(=NNC(=O)c1n[nH]c2c1CCC2)c1ccco1	nt	1.3	nt	2	3	-1	nt
18	O=C(CSc1ncccn1)Nc1cccc(S(=O)(=O)N2CCOCC2)c1	-11	2.1	nt	0	-2	6	3578
19	COc1ccc(C/C(C)=N/NS(=O)(=O)c2ccc(Br)cc2)cc1	-16	nt	-3	nt	nt	nt	5864
20	CN(Cc1ccccc1)C(=O)c1ccc(NC2=NC3CS(=O)(=O)CC3S2)cc1 (stereo unspecified)	-18	-10	-6	2	7	4	6416
21	CCOC(=O)c1ccc(NC(=S)Nc2ccc(Br)cc2N)cc1	-4	0.5	2	-23	7	13	4159
22	COCCNC(=O)CN(Cc1ccc(OC)cc1)C(=O)CCC(=O)Nc1nccs1	-7	nt	3	nt	nt	nt	3556
23	COc1ccc(C)cc1NC(=O)NC1CCCc2ccccc21 (stereo unspecified)	-2	-1.7	5	-6	0	-5	nt
24	Cc1ccc(C(=O)N2CCN(c3ccccc3)CC2)cc1C	-28	3.5	-1	6	20	12	7689
25	CCOCc1nnc(NC(=O)c2cc(OC)c(OC)cc2[N+](=O)[O-])s1	-1	7.4	-3	-2	9	2	2003
26	COC(=O)c1cc(OC)c(OC)cc1NC(=O)c1csc(C)c1	-15	4.2	-1	-7	7	0	4102
27	COc1ccc(-c2cnnc(N/N=C/c3ccc(C)o3)n2)cc1	-25	nt	-8	nt	nt	nt	4293
28	COc1ccc(Cl)cc1NC(=O)C1Cc2cc(S(=O)(=O)N3CCCC3)ccc2N1C(C)=O (stereo unspecified)	-3	1.2	-10	3	-6	0	4787
29	CCOc1ccc(CCNC(=O)CSc2n[nH]c(N)n2)cc1OCC	5	0.6	-1	4	4	-5	4766
30	CCOC(=O)N1CCC(N2CCN(S(=O)(=O)c3ccc(C)cc3)CC2)CC1	-10	0.2	5	-2	8	1	3024
31	O=C(N/N=C/c1ccc(O)cc1)c1cc(C2CC2)[nH]n1	-25	nt	1	nt	nt	nt	6098
32	COC(=O)CCSCC(=O)Nc1ccc(C)c(S(=O)(=O)N2CCCCC2)c1	0	4.7	17	14	-6	-10	4428
33	Cc1nn(CC(=O)Nc2c(F)c(F)cc(F)c2F)c(=O)c2cccn12	-30	4.3	15	8	12	2	6315
34	Cc1cccc(CN2CCCC(C(=O)N3CCc4ccccc4C3)C2)c1 (stereo unspecified)	-5	3.6	-6	3	0	0	?
35	O=C(Cc1ccc([N+](=O)[O-])cc1)Nc1cccc(C(=O)N2CCCCC2)c1	-10	1.4	nt	2	0	3	4063
36	COc1cc(C=Nn2c(COc3ccccc3)n[nH]c2=S)cc(Br)c1O	nt	11	nt	13	8	6	nt
37	Cc1cccc(C)c1NC(=O)CSC(=S)N1CCCC1	-8	3.1	3	3	4	20	3928
38	Cc1cc(C)c(C#N)c(=N)o1	0	5.2	0	10	3	4	11404
39	Cc1ccc(C)c(S(=O)(=O)N2CCN(C(C(=O)Nc3ccc(F)cc3)c3ccccc3)CC2)c1 (stereo unspecified)	-12	-0.4	-2	31	-16	-5	2005
40	CCNC(=O)C1CCCc2c1[nH]c1ccc(Cl)cc21 (stereo unspecified)	-29	0.3	1	1	5	3	3532
41	O=C(c1ccc2[nH]c(=O)c(=O)[nH]c2c1)N1CCN(Cc2ccccc2)CC1	0	3.1	-3	7	16	7	5898
42	Cn1c(=O)c2[nH]c(CN3CCN(Cc4ccccc4)CC3)nc2n(C)c1=O	-4	6.3	-6	1	nt	nt	3128
43	O=C(COc1cccnc1[N+](=O)[O-])N1CCC(Cc2ccccc2)CC1	-13	1.1	nt	3	5	15	3909
44	Cc1ccc2nc(Cl)c3nnnn3c2c1	-2	nt	24	nt	nt	nt	4882
45	COc1ccc(NC2=C(C(C)=O)C(c3ccc(OC)c(OC)c3)C(C(C)=O)C(C)(O)C2)cc1 (stereo unspecified)	-3	3.1	-3	3	3	9	3953
46	CCOC(=O)Nc1oc2ccccc2c(=O)c1CN1CCOCC1	-16	3.4	-7	-1	-1	5	2529
47	O=c1[nH]c(SCc2cccc(Cl)c2)nc2c1CCCC2	-43	4.0	2	-8	11	15	9843
48	O=c1[nH]c(C2CCCN(S(=O)(=O)c3ccccc3F)C2)nc2c1nnn2Cc1ccccc1Cl (stereo unspecified)	-4	5.1	-12	-16	-20	-7	3673
49	COc1ccc(Nc2nc3ccccc3nc2NS(=O)(=O)c2ccc(NC(C)=O)cc2)cc1	-18	28	-2	-4	-7	3	4809
50	Cc1nc2cnccc2n1C	-13	1.2	6	1	-8	6	4453
51	CN(C)c1ccc(N=Nc2nc3ccccc3n2C)cc1	nt	2.9	30	9	23	6	3869
52	COc1ccc(C(=O)NCC(=O)N=Nc2c(O)n(Cc3ccccc3)c3ccccc23)cc1OC	-36	15	-1	-16	8	2	2348
53	Cc1ccc(O)c(N=NC2=C(O)CC(C)(C)CC2=O)c1	4	5.7	11	-2	7	14	2025
54	COC(=O)[C@@]1(Cc2ccc(F)cc2)C2c3cc(C(=O)N(C)C)n(CCc4ccccn4)c3CC2CN1C(=O)c1ccccc1 (stereo partly specified)	nt	3.8	nt	5	10	10	nt
55	Cc1sc(NC(=O)C2C3CCC(O3)C2C(=O)O)nc1-c1ccc(CC(C)C)cc1 (stereo unspecified)	-52	nt	-8	nt	nt	nt	3350
56	Cc1ccc(N/C(C(Cl)=C(Cl)Cl)=C(/Cl)[N+](=O)[O-])c(C)c1	1	4.1	0	47	9	15	2409

# Following part.
No.	compound	PrP UTR inh	Sa RN4220 lethal	BJeLR lethal	Sa ugtP lethal	Mtb hypoxia rep	Mtb hypoxia rep growth	Autofluor counter
57	CC(C)C(=O)Nc1cccc(-c2cn3ccccc3n2)c1	-10	-0.3	4	1	-4	1	1956
58	CN1C(=S)SC(C)(C)C1/[N+]([O-])=C/c1cccnc1 (stereo unspecified)	-25	7.8	-10	9	nt	nt	4258
59	Cc1cc(NC(=O)c2ccccc2NS(=O)(=O)c2c(C)c(C)cc(C)c2C)no1	-32	6.9	8	10	3	2	9309
60	Cc1ccc(C(=O)N2CCC(C(=O)c3ccc(F)cc3)CC2)cc1	-7	2.1	nt	8	11	4	3259
61	CCOC(=O)N1CCN(C(=O)Cc2cccs2)CC1	-4	-4.9	5	-2	23	11	3818
62	CC(Oc1ccc(Cl)cc1)c1ccc(C#N)c(=O)[nH]1 (stereo unspecified)	-7	2.3	-5	13	2	4	1953
63	Cc1c(C(=O)N(C)C(C)c2ccccn2)oc2c(F)cccc12 (stereo unspecified)	-25	2.7	6	2	6	5	5306
64	CC(=O)c1ccc(CCCc2ccc(C(C)=O)cc2)cc1	-6	6.9	nt	6	12	7	3881
65	Cc1cc(-c2ccc(C(C)C)c(S(=O)(=O)N3CC(=O)Nc4ccccc43)c2)on1	-12	7.9	-2	-4	-6	-8	5566
66	c1ccc2c(c1)nc(N1CCOCC1)c1ccccc12	-1	3.1	-5	-4	19	2	4412
67	N#CC(C#N)=Cc1c(N2CCN(c3ccccc3)CC2)nc2ccccn2c1=O	-12	5.0	1	-6	9	6	3509
68	CCCc1cc(=O)[nH]c(SCC(=O)N2CCCc3ccccc32)n1	-4	9.0	31	-70	14	0	4519
69	O=C(ON=Cc1ccc(N2CCCCC2)c([N+](=O)[O-])c1)c1cccc(C(F)(F)F)c1	nt	-12	nt	-10	-6	3	nt
70	COc1cccc(NC(=O)Nc2nnc(N3CCCCC3C)s2)c1 (stereo unspecified)	-2	13	9	-5	4	-2	4466
71	CCCCCc1nnc(NC(=O)C2=COCCO2)s1	-75	3.4	3	11	8	1	3945
72	CCCC1(C(=O)OCC)NC(c2ccc(O)cc2)C2C(=O)N(c3cccc(C(C)=O)c3)C(=O)C21 (stereo unspecified)	-9	-0.4	-6	-5	-3	10	4484

# Along the list, quoted from above:
# Compounds 24 to 34 in Mtb hypoxia rep: 20, 9, 7, nt, -6, 4, 8, nt, -6, 12, 0
# Compounds 24 to 34 in Sa RN4220 lethal: 3.5, 7.4, 4.2, nt, 1.2, 0.6, 0.2, nt, 4.7, 4.3, 3.6
# Compounds 24 to 34 in Mtb hypoxia rep growth: 12, 2, 0, nt, 0, -5, 1, nt, -10, 2, 0

# Continued.
No.	compound	PrP UTR inh	Sa RN4220 lethal	BJeLR lethal	Sa ugtP lethal	Mtb hypoxia rep	Mtb hypoxia rep growth	Autofluor counter
73	CCOc1cc(C(=O)NN=C2CCCC2)cc(OCC)c1OCC	-7	-1.1	4	-2	2	-1	6511
74	O=C(O)CSc1cc(NS(=O)(=O)c2cccc([N+](=O)[O-])c2)c2ccccc2c1O	-15	20	-8	2	6	6	4544
75	CCOC(=O)c1cnc(-n2nc(C)cc2C)nc1Nc1cccc(C(C)=O)c1	3	4.1	5	-6	11	6	?
76	O=c1c2c(nc3n1CCCCC3)-c1ccccc1CC21CCCC1	-19	2.8	0	32	11	1	8125

# In the list so far, ten have a Cl atom.
No.	compound	PrP UTR inh	Sa RN4220 lethal	BJeLR lethal	Sa ugtP lethal	Mtb hypoxia rep	Mtb hypoxia rep growth	Autofluor counter
1	N#CC(c1ccccc1)c1cccc(Cl)n1 (stereo unspecified)	-21	7.6	7	14	8	-1	4007
8	COc1cc(C(=S)N2CCN(c3ccccc3Cl)CC2)cc(O)c1O	-9	17	-2	-15	1	1	3948
14	CCOc1ccc(S(=O)(=O)N/N=C(\C)c2ccc(Cl)c(Cl)c2Cl)cc1	-16	nt	-6	nt	nt	nt	2016
28	COc1ccc(Cl)cc1NC(=O)C1Cc2cc(S(=O)(=O)N3CCCC3)ccc2N1C(C)=O (stereo unspecified)	-3	1.2	-10	3	-6	0	4787
40	CCNC(=O)C1CCCc2c1[nH]c1ccc(Cl)cc21 (stereo unspecified)	-29	0.3	1	1	5	3	3532
44	Cc1ccc2nc(Cl)c3nnnn3c2c1	-2	nt	24	nt	nt	nt	4882
47	O=c1[nH]c(SCc2cccc(Cl)c2)nc2c1CCCC2	-43	4.0	2	-8	11	15	9843
48	O=c1[nH]c(C2CCCN(S(=O)(=O)c3ccccc3F)C2)nc2c1nnn2Cc1ccccc1Cl (stereo unspecified)	-4	5.1	-12	-16	-20	-7	3673
56	Cc1ccc(N/C(C(Cl)=C(Cl)Cl)=C(/Cl)[N+](=O)[O-])c(C)c1	1	4.1	0	47	9	15	2409
62	CC(Oc1ccc(Cl)cc1)c1ccc(C#N)c(=O)[nH]1 (stereo unspecified)	-7	2.3	-5	13	2	4	1953
